Rango complex inh = Rango-importin beta binding inhibition | 340,000 tested, 0.031% active | Q14974 | Potency, µM (series often up to 92.2 µM), without a hit: at the highest dose inhibition of complex formation | Rango CFP/YFP FRET sensor + importin beta, 45 min; active = rising FRET ratio curve, often small or poorly fitted; inconclusive = mostly compound fluorescence or quenching in the first reads; inactive = flat curves in all reads;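 further: potency means the concentration at half of the fitted maximal effect; 0% = DMSO wells and 100% = buffer wells lacking importin beta; nearly all actives have a fitted effect of over 15% in size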
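FRET biosensor Rango (snurportin 1 IBB between N-terminal EYFP and C-terminal Cerulean), 50 nM in PBS/1 mM DTT/0.02% Tween-20/0.1% BSA, preincubated 5 min RT with compound; 0.125 microM importin beta added, 45 min RT, CFP/YFP FRET ratio read.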
Rango dissoc inh = prevents RanGTP from dissociating the Rango-importin beta complex | O95149+P62826 | Biochemical FRET Rango-importin beta, RanGTP-induced dissociation | Potency, µM (highest dose often 46.1 µM), without a hit: at the highest dose activity change, negative = inhibition | 340,000 tested, 0.071% active | AID 540253; active means falling FRET ratio curve, often poorly fitted, with flat reads before Ran was added; inconclusive means other falling curves, or compound fluorescence or quenching; inactive means flat or rising ratio curve;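 further: potency means the concentration at half of the fitted maximal effect; % of control where 0% means no effect; nearly all actives have a fitted effect of over 45% in size; -100% = wells without RanGTP and RCC1; the record marks most hits as doubtful in a second field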
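FRET read at 45 min, room temperature: inhibitors block the CFP/YFP signal rise when RanGTP (0.6 uM Ran, 2 mM GTP, 0.2 uM RCC1) frees Rango (0.1 uM) from importin beta (0.25 uM). Pre-read after 5 min compound exposure flags interference.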
GLA inh pH 4.5 = blocks human alpha-galactosidase A at pH 4.5; P06280; purified enzyme, 4-MU-alpha-Gal fluorescence, pH 4.5; activity change, negative = inhibition, % at 105 µM; 230,000 tested, under 10 active; AID 1467; inconclusive = small, poorly fitted or top-dose-only inhibition, or a rising curve; inactive = flat fitted curve, though single readings scatter; no compound was filed as active;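 further: 0% = full activity with enzyme and -100% = basal without enzyme; dose as in the result columns while the protocol names 77 µM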
Target sequence (P06280 whole entry, looked up): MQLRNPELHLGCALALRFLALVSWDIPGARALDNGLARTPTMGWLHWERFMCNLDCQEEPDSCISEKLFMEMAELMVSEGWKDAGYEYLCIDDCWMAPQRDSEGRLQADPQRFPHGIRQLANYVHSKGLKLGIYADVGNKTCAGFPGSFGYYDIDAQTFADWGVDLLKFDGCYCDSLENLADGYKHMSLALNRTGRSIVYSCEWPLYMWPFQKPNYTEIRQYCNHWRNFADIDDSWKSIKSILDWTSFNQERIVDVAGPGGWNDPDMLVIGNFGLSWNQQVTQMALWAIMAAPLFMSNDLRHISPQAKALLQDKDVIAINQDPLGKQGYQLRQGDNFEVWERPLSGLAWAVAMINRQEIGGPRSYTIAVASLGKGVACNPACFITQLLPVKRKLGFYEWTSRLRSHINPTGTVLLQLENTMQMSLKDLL
miR-21 FLuc = miR-21 reporter, rising signal; HeLa miR-21 FLuc reporter, luciferase, 48 h; Potency, µM (highest dose often 38.3 µM), for the others: at the top dose reporter change, positive = more light; 340,000 tested, under 10 active; active = well fitted rising curve with a large enough effect; inconclusive = small, poorly fitted or top-dose-only effect; inactive = no such curve, though single readings can be large or run the other way;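 further: % of control where 0% means no effect; miR-21 action dims this reporter so a rising signal means less miR-21 action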
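HeLa cells endogenously expressing miR-21, stably carrying CMV-driven firefly luciferase with a downstream miR-21 binding site, 2000 cells/well. Titrations up to approximately 40 uM, 48 hours; luciferase luminescence read.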
The depositor's hits bear a star; ? = inconclusive; . = no result given. This is a subset (hit frequency here may not be typical).

Each structure is followed by: Rango complex inh	Rango dissoc inh	GLA inh pH 4.5	miR-21 FLuc
- CC1(C)Cc2c(sc(NC(=O)c3ccc(C(=O)c4ccccc4)cc3)c2C#N)C(C)(C)N1
 : -2.0%	3%	.	4%
- O=C(CN1CCN(S(=O)(=O)c2ccccc2)CC1)Nc1ccc2c(c1)CCC2
 : 4.5%	0%	3	-2%
- CC(NS(=O)(=O)c1ccc2c(c1)CC(C)N2C(=O)C1CC1)c1ccccc1 (stereo unspecified)
 : 4.4%	4%	.	4%
- CC(=O)N(Cc1ccc(F)cc1)C1=C(NCCc2ccccc2)C(=O)c2ccccc2C1=O
 : -3.2%	5%	-16	?
- COc1ccc(-c2cn3c(C)c(C(=O)N4CCN(c5ccc(F)cc5)CC4)sc3n2)cc1
 : 1.4%	-11%	1	-10%
- Cc1c(NC(=O)COC(=O)CSc2ccc(C(N)=O)cc2[N+](=O)[O-])c(=O)n(-c2ccccc2)n1C
 : 0.2%	-15%	.	2%
- Cc1c(C(=O)OC2CCC(C)CC2)[nH]c2c1C(=O)CCC2 (stereo unspecified)
 : 0.4%	13%	2	-81%
- CCCCCOC(=O)C1=C(C)NC(=O)NC1c1ccc(OC)cc1 (stereo unspecified)
 : 0.4%	-5%	.	-4%
- CC(=O)Nc1c(C(=O)NCc2ccccc2)nnn1Cc1ccccc1
 : -1.3%	-16%	1	1%
- Cc1cc(=O)oc2cc(OCC(=O)NCc3ccccn3)ccc12
 : 1.5%	6%	0	0%
- COc1ccc(C2CC(=O)c3cnc(N4CCc5ccccc54)nc3C2)c(OC)c1 (stereo unspecified)
 : .	.	3	-2%
- COc1ccc(NC(=O)CN2CCN(S(=O)(=O)c3cccs3)CC2)cc1Cl
 : 6.4%	-6%	.	.
- COc1cc2nc(CN3CCN(S(=O)(=O)c4cc(C)ccc4C)CC3)[nH]c(=O)c2cc1OC
 : 0.3%	0%	.	.
- O=C(Nc1ccccc1N1CCCCC1)C1CC(=O)N(c2ccccc2F)C1 (stereo unspecified)
 : 1.0%	2%	.	.
- CNC(=S)Nc1ccc([N+](=O)[O-])c(C)c1
 : -0.7%	11%	4	-7%
- Cn1cnnc1SCC(=O)N1N=C(c2ccc(Cl)cc2)CC1c1ccco1 (stereo unspecified)
 : 3.7%	-12%	0	2%
- Cc1c(C(=O)NCCSc2ccc(Cl)cc2)cccc1[N+](=O)[O-]
 : 3.3%	4%	-5	-10%
- S=C(NCc1cccs1)Nc1cccc2ccccc12
 : 4.8%	12%	1	-15%
- Cc1ccc(N(C(=O)Cn2nnc(-c3ccccc3F)n2)C(C(=O)NC2CCCC2)c2ccncc2)cc1 (stereo unspecified)
 : -0.8%	-7%	.	-2%
- CC1(C)CC(N2CCCC2)=CC(=[N+]2CCCCC2)C1
 : 5.0%	-6%	-7	?

Single records (already shown). Order of values: Rango complex inh, Rango dissoc inh, GLA inh pH 4.5, miR-21 FLuc
Listed for `Cn1cnnc1SCC(=O)N1N=C(c2ccc(Cl)cc2)CC1c1ccco1` (stereo unspecified) = 3.7%, -12%, 0, 2%
Listed for `COc1cc2nc(CN3CCN(S(=O)(=O)c4cc(C)ccc4C)CC3)[nH]c(=O)c2cc1OC` = 0.3%, 0%, ., .
Listed for `Cc1c(NC(=O)COC(=O)CSc2ccc(C(N)=O)cc2[N+](=O)[O-])c(=O)n(-c2ccccc2)n1C` = 0.2%, -15%, ., 2%
Listed for `S=C(NCc1cccs1)Nc1cccc2ccccc12` = 4.8%, 12%, 1, -15%
Listed for `CC(=O)N(Cc1ccc(F)cc1)C1=C(NCCc2ccccc2)C(=O)c2ccccc2C1=O` = -3.2%, 5%, -16, ?

Continuation.
Each structure is followed by: Rango complex inh	Rango dissoc inh	GLA inh pH 4.5	miR-21 FLuc
- C#CCOCCOCCOCCNc1nc(N2CCN(C(=O)[C@H](CCC(=O)O)n3cc(C(N)Cc4ccc(O)cc4)nn3)CC2)nc(N2CCN(C(=O)[C@H](CCC(=O)O)n3cc(C(N)[C@H](C)CC)nn3)CC2)n1 (stereo partly specified)
 : -1.8%	1%	0	0%
- Cc1cc(C)c(NC(=S)N2CCN(c3ccc([N+](=O)[O-])cn3)CC2)cc1C
 : -1.1%	-16%	.	-6%
- CCCCNC(=O)c1cn(C)c2ccc(S(=O)(=O)N3CC(C)CC(C)C3)cc2c1=O (stereo unspecified)
 : -0.2%	0%	.	-2%
- O=C(O)Cn1cc(C(=S)N2CCOCC2)c2ccccc21
 : 0.0%	12%	-6	3%
- COc1ccc(-c2csc3nc(-c4ccccc4F)oc(=O)c23)cc1OC
 : ?	-7%	4	-9%
- COC(=O)c1cccc2c(C(=O)O)cc(-c3ccccc3)nc12
 : 1.8%	-16%	.	.
- CCOC(=O)c1nc(C)n(-c2cc(OC)c(Cl)cc2Cl)n1
 : 0.5%	6%	4	-1%
- COc1ccc(Cl)cc1NC(=O)CSc1nnc(C2CC2)n1N
 : 2.4%	6%	.	.
- O=C1CSCC(=O)N1Cc1ccc(Cl)c(Cl)c1
 : 3.2%	11%	.	5%
- O=C(CN1CCN(c2cccc(Cl)c2)CC1)c1ccc(O)cc1O
 : 0.7%	1%	.	-1%
- O=C(COC(=O)C12CC3CC(CC(O)(C3)C1)C2)NCCc1ccc(Cl)cc1
 : -1.9%	-15%	-8	7%
- CN(CC(=O)N1CCN(c2ncccn2)CC1)S(=O)(=O)c1ccc(Cl)cc1
 : 3.7%	0%	2	-11%
- CS(=O)(=O)c1ccccc1C(=O)Nc1cccc2ncccc12
 : 2.0%	-14%	.	2%
- C/C(=N\NC(=O)c1nnn(-c2nonc2N)c1CN(C)C)c1ccco1
 : 0.0%	8%	.	0%
- CCOC(=O)CSCC(=O)Nc1c(C(=O)C2CC2)oc2ccccc12
 : -0.7%	13%	-3	-5%
- Nc1cc(C(=O)OCC(=O)N2CCOCC2)ccc1Cl
 : 1.4%	22%	.	-32%
- Cc1oc2cc3oc(=O)c(CC(=O)N[C@H](C(=O)N[C@@H](C(=O)O)c4ccccc4)C(C)C)c(C)c3cc2c1C
 : -2.9%	-15%	.	-12%
- Cc1nc(NCc2ccco2)[nH]c(=O)c1CCC(C)C
 : 4.7%	11%	1	-5%
- CCOC(=O)c1c(C)[nH]c(C(=O)OCC(=O)Nc2cc(C)ccc2OC)c1C
 : 0.5%	6%	1	-1%
- C=CCNC(=O)C1CC2Cn3c(nc4cc5ccccc5cc43)C2N1C (stereo unspecified)
 : 2.7%	-15%	1	-27%

3 entries from above, with values ahead of the structure:
Rango complex inh | Rango dissoc inh | GLA inh pH 4.5 | miR-21 FLuc | Compound
-0.7% | 13% | -3 | -5% | CCOC(=O)CSCC(=O)Nc1c(C(=O)C2CC2)oc2ccccc12
2.7% | -15% | 1 | -27% | C=CCNC(=O)C1CC2Cn3c(nc4cc5ccccc5cc43)C2N1C (stereo unspecified)
0.0% | 12% | -6 | 3% | O=C(O)Cn1cc(C(=S)N2CCOCC2)c2ccccc21

Continuation:
Each structure is followed by: Rango complex inh	Rango dissoc inh	GLA inh pH 4.5	miR-21 FLuc
- COc1ccc(NC(=O)CN2C(=O)NC(C)(c3ccc4c(c3)OCO4)C2=O)cc1S(N)(=O)=O (stereo unspecified)
 : -0.8%	-3%	.	.
- Cc1nn(CC(=O)NNC(=O)c2ccccc2F)c([N+](=O)[O-])c1Br
 : -1.4%	-3%	1	-5%
- CCCCCC(=O)Nc1cccc(C2=NOC3(C2)C[C@H](C(N)=O)N(C(=O)COc2ccc(Cl)cc2)C3)c1 (stereo partly specified)
 : -0.5%	7%	-23	?
- Cc1ccc(C)c(NC(=S)NCCc2ccc(F)cc2)c1
 : 1.0%	-2%	-11	6%
- Cc1ccc(S(=O)(=O)N2CCOc3ccccc32)c(C)c1NS(C)(=O)=O
 : 5.2%	13%	.	0%
- Cc1ccc(OCCN2CCN(c3ncnc4sc(C)c(C)c34)CC2)cc1
 : -0.7%	-17%	-1	6%
- COCCOc1cc(NC(=O)CS(=O)(=O)CC(=O)N(C)C)c(Cl)cc1Cl
 : -2.1%	-4%	4	-1%
- O=C(NC1CCCCC1)c1ccc(-n2cnnn2)cc1
 : 2.4%	16%	2	-1%
- CCOC(=O)c1ccc(S(=O)(=O)N2CCN(C3CC(=O)N(c4ccccc4C(F)(F)F)C3=O)CC2)cc1 (stereo unspecified)
 : -1.5%	-8%	.	.
- O=C(NCCCn1ccnc1)c1ccccc1NS(=O)(=O)c1ccc(F)c(F)c1
 : -2.0%	0%	9	-7%
- O=C(Nn1cnc2ccccc2c1=O)c1ccc([N+](=O)[O-])cc1Cl
 : -2.1%	4%	4	-9%
- O=C(OCC(=O)N1CCN(C(=O)c2ccco2)CC1)c1cccc(S(=O)(=O)N2CCc3ccccc32)c1
 : -3.9%	8%	-5	-1%
- CCOc1ccccc1NS(=O)(=O)c1ccc(Br)s1
 : -0.1%	2%	9	-2%
- CCCn1c(=O)[nH]c(=O)c2c1nc(-c1cc([N+](=O)[O-])ccc1Cl)n2CCOC
 : 2.6%	-14%	.	-21%
- O=C(COC(=O)CN1C(=O)C(=O)c2ccccc21)OCN1C(=O)c2ccccc2C1=O
 : 0.2%	-4%	7	1%
- Cc1ccc(C2=NOC3(CC(=O)N(c4ccccc4)C3=O)C2)cc1 (stereo unspecified)
 : -0.1%	-3%	-22	-4%
- O=C1CCC(C(=O)N2CCCCO2)CN1CCc1ccccc1 (stereo unspecified)
 : 4.7%	0%	.	-58%
- COCCNC(=O)Cn1ccc2cc(S(=O)(=O)N3CCCCC3)ccc21
 : -0.2%	-19%	.	0%
- CCCNC(=O)CN(c1ccc(F)c(Cl)c1)S(C)(=O)=O
 : 1.1%	0%	-2	-6%
- O=C(COC(=O)C1C2CC3OC(=O)C1C3C2)Nc1ccc(F)cc1 (stereo unspecified)
 : -1.0%	7%	.	11%
- C=CCn1c(O)c(N=Nc2nc3ccccc3c(=O)n2-c2ccccc2)c2ccccc21
 : 6.1%	-3%	-1	-3%
- O=C(COC(=O)/C=C/c1ccc([N+](=O)[O-])cc1)NCC1CCCCC1
 : 1.7%	2%	.	.
- O=[N+]([O-])c1ccc(NC(=S)N2CCCC2)cc1
 : -0.8%	1%	.	-11%
- N=c1sccn1CC(=O)Nc1ccc(S(=O)(=O)N2CCOCC2)cc1
 : -1.3%	0%	3	1%
- Cc1cc(C)c(SCCc2ccncc2)c(C)c1
 : 2.2%	1%	.	18%
- CCCCCCOC(=O)Sc1nc2ccccc2o1
 : -0.2%	-1%	2	-27%
- CC1CCN(Cc2cc(=O)oc3cc(O)c(Cl)cc23)CC1
 : 0.0%	?	.	-3%
- O=C(C1=C(O)C(=O)N(c2ncccn2)C1c1cccc(Cl)c1)c1ccco1 (stereo unspecified)
 : ?	-15%	3	-4%
- CCOC(=O)N=Nc1c(O)n(C)c2ccccc12
 : -3.3%	-7%	7	-6%
- CCOC(=O)CC1C(=O)NCCN1C(=O)c1cc2c(=O)n3ccccc3nc2s1 (stereo unspecified)
 : .	.	?	-22%
- Nc1ccn(Cc2ccc(F)cc2)n1
 : -1.8%	-5%	10	0%
- COc1ccc(CCNC(=O)COC(=O)C23CC4CC(CC(C4)C2)C3)cc1
 : -1.3%	26%	-4	4%
- Cc1ccc(Cl)cc1NC(=O)COC(=O)c1ccc(N2CCCC2)c([N+](=O)[O-])c1
 : .	.	8	3%
- COc1cc(/C=C2/C(=O)NN(c3cccc(C)c3)C2=O)ccc1OC(=O)c1ccco1
 : -0.8%	3%	3	-2%
- CC(C)NC(=O)N(C)C[C@H]1Oc2ccc(NC(=O)Cc3ccccc3)cc2C(=O)N([C@H](C)CO)C[C@@H]1C
 : -0.5%	6%	.	.
- CNC(=O)c1c(Cl)cnn1-c1ccc(F)cc1
 : 3.3%	-4%	-1	-35%
- CCCCC[n+]1ccn(C2=C([O-])c3ccccc3C(=O)/C2=N\S(=O)(=O)c2ccc(Cl)cc2)c1
 : -2.8%	2%	-2	6%

Screening data (PubChem BioAssay)
